Assay outcomes from PubChem BioAssay.
WNV NS2B-NS3 inh – blocks West Nile virus NS2B-NS3 protease activity | P06935 | AID 577 | WNV NS2B-NS3 protease, fluorogenic substrate Ex360/Em465; hits give low values | z-score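 (tested at a level between 10 and 100 µM)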 | hit rate 0.18% among 65,000;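 active = z-score at -3 or under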;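 note: score is relative to mean and spread of the compound wells of a plate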
Target sequence (P06935 1371-1501 limits assumed): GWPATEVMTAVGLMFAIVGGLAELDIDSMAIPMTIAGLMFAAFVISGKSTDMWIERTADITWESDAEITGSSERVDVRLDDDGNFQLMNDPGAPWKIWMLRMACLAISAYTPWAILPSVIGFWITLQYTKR
Target sequence (P06935 1502-1679 limits assumed): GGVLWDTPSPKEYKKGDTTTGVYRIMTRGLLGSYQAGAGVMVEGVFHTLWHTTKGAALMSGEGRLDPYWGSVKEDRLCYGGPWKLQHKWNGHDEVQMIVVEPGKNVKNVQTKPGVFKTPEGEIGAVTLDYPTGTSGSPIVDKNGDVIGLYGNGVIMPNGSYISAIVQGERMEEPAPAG
Hsc70 ATP site – Hsc70 inhibitors, probe displacement, primary screen, biochemical, fluorescence polarization (AID 568); one-dose displacement, % at 20 µM; IC50 in µM for titrated hits; Hsc70 fluorescence polarization, probe displacement; higher % means a stronger effect; strong numbers were not always called active; 83,000 tested, under 10 active;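 active = displacement above 50% without optical interference and an IC50 on retest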;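 note: ATPase domain with a fluorescein-tagged ATP probe; 0% = vehicle and 100% = excess ADP; read after one hour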
MT1-MMP promoter – inhibitors of MT1-MMP promoter transcription, cell-based, luciferase reporter, luminescence (AID 618); MT1-MMP promoter luciferase reporter cells, luminescence; hit rate 0.62% among 87,000; calls from a first round at 10 µM; hits with a dose series show EC50 in µM;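 active = over half of the reporter light lost at 10 µM or EC50 under 50 µM; inactive = the rest and hits that failed the dose series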;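 note: actives suppress MT1-MMP promoter-driven transcription so potencies describe inhibitors; HT1080 fibrosarcoma cells; overnight exposure; toxic or luciferase-blocking compounds were not removed from the actives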
The depositor's hits bear a star; i = inactive; . = no result given; + = active, no number. Some of the compounds tested; rates above refer to the full screens.

SMILES,WNV NS2B-NS3 inh,Hsc70 ATP site,MT1-MMP promoter
CCCCCCn1c2c(c(=N)c3c1CCC3)CCC2,0.59,1.5%,i
Cc1ccccc1Nc1nc(N)nc(COC(=O)C(NC(=O)c2ccco2)C(C)C)n1 (stereo unspecified),0.96,-4.7%,i
CCSc1nc(C2CC2)cc(-c2cccs2)c1C#N,.,-1.1%,i
COc1ccc(NC(=O)C2CCCN2S(=O)(=O)c2ccc(F)cc2)cc1 (stereo unspecified),0.44,1.4%,i
CCOC(=O)N1CCC(NC(=O)Cn2cc3c(n2)CCC(C)C3)CC1 (stereo unspecified),0.35,-0.9%,i
O=C1NN=C(c2ccc(Cl)cc2)CC1c1cccc(Cl)c1 (stereo unspecified),.,10%,i
COc1ccc(N(CC(=O)Nc2ccccc2SC)S(C)(=O)=O)cc1OC,-0.24,0.0%,i
COC(=O)c1ccccc1NC(=O)c1ccccc1SC,-0.57,-1.3%,i
CCOc1cc2[nH]c(=O)n(CC3CCC(C(=O)NCCC(C)C)CC3)c(=O)c2cc1OCC (stereo unspecified),1.1,-1.8%,i
COc1cccc(N2C(=O)CC(N3CCc4ccccc43)C2=O)c1 (stereo unspecified),.,0.4%,i
CC1CC(C)CN(CCCNC(=O)Cc2c(C(=O)O)[nH]c3ccccc23)C1 (stereo unspecified),0.8,4.1%,i
CC1CCc2nc(NC(=O)c3cc(C(C)(C)C)nn3C)sc2C1 (stereo unspecified),-0.04,5.4%,i
CCOc1ccccc1N1CCN(Cc2ccc(Br)s2)CC1,-1.1,2.8%,i
Cc1cc(CC(C)C)n(-c2nc3ccccc3c(=O)n2OCc2ccccc2)n1,.,3.5%,i
COc1ccc(C)cc1S(=O)(=O)N1CCC(C(=O)N2CCOCC2)CC1,-0.08,6.2%,i
CCc1c(O)nc(SCC(=O)Nc2ccccc2C)[nH]c1=O,-0.01,0.1%,i
COc1cc(S(=O)(=O)N2CCOCC2)ccc1NC(=O)CSc1nnc(N)s1,-1.2,6.8%,i
O=C(CCCCCCN1C(=O)c2ccccc2C1=O)NC1CCCCC1,.,-3.7%,i
CCCCNC(=O)NS(=O)(=O)c1ccc(NS(=O)(=O)c2ccccc2)cc1,-2.2,3.3%,i
Cc1ccc(CCNS(=O)(=O)c2cnc[nH]2)cc1,0.91,1.8%,i
CCC(C)n1cnc2c(=O)oc3ccccc3c21 (stereo unspecified),.,-5.9%,i
Cc1ccc2nc(-c3cccc(-c4nc5ccc(C)cc5o4)n3)oc2c1,0.05,-8.2%,i
O=C(O)COc1ccccc1Cc1ccccc1,0.43,2.9%,i
N#Cc1cn(CC(=O)O)c2ccccc12,-0.79,-2.6%,i
COc1ccc(NC(=O)CCCCn2c(=O)[nH]c3ccccc3c2=O)cc1,0.52,1.7%,i

Exported with values under each structure: 3 of the compounds above
Screens in order: WNV NS2B-NS3 inh	Hsc70 ATP site	MT1-MMP promoter
Cc1cc(CC(C)C)n(-c2nc3ccccc3c(=O)n2OCc2ccccc2)n1
 : .	3.5%	i
COc1ccc(C)cc1S(=O)(=O)N1CCC(C(=O)N2CCOCC2)CC1
 : -0.08	6.2%	i
CCc1c(O)nc(SCC(=O)Nc2ccccc2C)[nH]c1=O
 : -0.01	0.1%	i

(cont.)
SMILES,WNV NS2B-NS3 inh,Hsc70 ATP site,MT1-MMP promoter
O=C(O)CCNS(=O)(=O)c1ccc(Oc2ccccc2)cc1,-1.7,-1.3%,i
CCc1c(C(=O)Nc2nnc(C3CC3)s2)csc1C,1.3,2.7%,i
COc1cccc(-c2nc(CS(=O)(=O)CC(=O)NCc3ccccc3)c(C)o2)c1,1.9,0.0%,i
O=C1CCCC2=C1C(c1ccco1)Nc1ccc3ccccc3c12 (stereo unspecified),2.2,-8.0%,i
Cc1ccsc1C1C(C(=O)O)c2ccccc2C(=O)N1C (stereo unspecified),-1.1,-2.1%,i
CCOc1ccc(C2CC(=O)NC3=C2C(=O)CCC3)cc1 (stereo unspecified),1.9,-3.7%,i
COc1ccc(-n2c(SCC(=O)Nc3nccs3)nc3sc4c(c3c2=O)CCN(C)C4)cc1,0.87,-14%,i
COc1ccccc1-c1nnc(NC(=O)C(C)SC2=NCCS2)s1 (stereo unspecified),-0.00019,4.5%,i
CCCCSc1nc(C)c(C(C)=O)cc1C#N,-0.34,3.6%,i
Cc1onc(-c2c(F)cccc2Cl)c1C(=O)NCC1COc2ccccc2O1 (stereo unspecified),-0.03,5.0%,i
O=c1[nH]c2cc3c(cc2cc1CN(CCc1ccccc1)Cc1nnnn1C1CCCC1)OCCO3,0.55,0.6%,i
Cc1cc(C)nc(N2CCCC(C(=O)NCCC3=CCCCC3)C2)n1 (stereo unspecified),0.85,1.9%,i
N#CC1=C(N)Oc2cc(O)ccc2C1c1ccncc1 (stereo unspecified),0.01,-13%,i
Cc1cc(C)n(C(=O)c2ccc(S(=O)(=O)NCC3CCCO3)cc2)n1 (stereo unspecified),-0.66,0.0%,i
O=C(OCn1ncc(Br)c(Br)c1=O)c1ccc(F)cc1,.,2.3%,+
COc1ccccc1C(c1nnnn1CS(=O)(=O)c1ccc(C)cc1)N1CCSCC1 (stereo unspecified),0.49,-8.2%,i
COc1ccc(S(=O)(=O)Cc2ccc(C(=O)N3CCN(C(=O)c4ccco4)CC3)o2)cc1,-2.1,4.3%,i
O=C(Cn1ncc2c3ccccc3n(Cc3ccccc3)c2c1=O)N1CCN(c2ncccn2)CC1,.,-1.1%,i
c1ccc2c(c1)CC(N1CCCCC1)c1ccccc1N2 (stereo unspecified),-0.83,4.2%,i
CC(C)Cc1nc(N2CCN(C(=O)C(C)C)CC2)c(C#N)c2c1CCC2,-0.32,-2.8%,i
O=S(=O)(c1ccc(NC2CCCc3ccccc32)nc1)N1CCOCC1 (stereo unspecified),-0.54,3.6%,i
Cc1noc(C)c1COc1ccc(C(=O)OCC(=O)N2c3ccccc3NC(=O)C2(C)C)cc1,.,5.4%,i
COc1cccc(CNC(=O)C2CCN(S(=O)(=O)c3ccc4c(c3)CCC(=O)N4)CC2)c1,-3.3*,12%,i
CCOC(=O)C1=NN(c2cccc(Cl)c2)C2=NC(C)=C(C(=O)OC)C(c3cccs3)N12 (stereo unspecified),.,-0.8%,i
CCOC(=O)c1c(-c2cccs2)csc1NC(=O)C(C)(C)C,.,0.5%,i

Entries listed so far that have a COOH group (five):
SMILES,WNV NS2B-NS3 inh,Hsc70 ATP site,MT1-MMP promoter
CC1CC(C)CN(CCCNC(=O)Cc2c(C(=O)O)[nH]c3ccccc23)C1 (stereo unspecified),0.8,4.1%,i
O=C(O)COc1ccccc1Cc1ccccc1,0.43,2.9%,i
N#Cc1cn(CC(=O)O)c2ccccc12,-0.79,-2.6%,i
O=C(O)CCNS(=O)(=O)c1ccc(Oc2ccccc2)cc1,-1.7,-1.3%,i
Cc1ccsc1C1C(C(=O)O)c2ccccc2C(=O)N1C (stereo unspecified),-1.1,-2.1%,i

Next section.
SMILES,WNV NS2B-NS3 inh,Hsc70 ATP site,MT1-MMP promoter
CCC(C)c1ccc(OCCn2cc(/C=N/NC(=O)CSc3nnc(C)s3)c3ccccc32)cc1 (stereo unspecified),.,1.6%,i
O=S(=O)(Nc1ccccc1)c1ccc(F)cc1,.,-0.3%,i
CCc1ccc(NC(=O)C(C)Nc2ccc(S(=O)(=O)NC(C)=O)cc2)cc1 (stereo unspecified),-0.31,0.9%,i
O=C(CCSCCC(=O)N1CCCC1)N1CCCC1,-0.53,3.1%,i
Cn1cnnc1SCC(=O)N1c2ccccc2-c2c(ssc2=S)C1(C)C,-1.1,-2.2%,i
Cc1nn(C(=O)c2ccc3c(c2)OCO3)c(N)c1-c1ccccc1,-0.24,5.0%,i
CN1CCN(CCC(=O)Nc2ccc(OCc3ccccc3)cc2)CC1,-0.67,-11%,i
CC(=O)NCCN=Cc1sc2ccccc2c1O,-1,4.5%,i
CC(=O)c1ccccc1OC(=O)c1ccco1,-0.65,-1.0%,i
CCOC(=O)c1sc2nc3n(c(=O)c2c1C)CCCCC3,-0.18,2.6%,i
CCOC(=O)c1c(NC(=O)COC)sc(C(C)=O)c1C,0.65,2.0%,i
Brc1ccc(-c2nnc(-c3ccc4c(c3)OCO4)o2)o1,0.8,3.0%,i
O=C1c2ccccc2C(Nc2cccc(C(F)(F)F)c2)N1Cc1ccco1 (stereo unspecified),0.51,1.5%,i
CCN(CC)c1nc(C#N)nc(N(CC)CC)n1,-0.52,-2.8%,i
O=C1CCCc2c1cc(C(=O)Nc1ccc(Cl)cn1)c(=O)n2-c1ccccc1,-0.98,-6.1%,i
c1ccc(-c2nnc(N3CCOCC3)nc2-c2ccccc2)cc1,-0.59,3.6%,i
OCc1cc(CO)c(O)c(CCc2ccccc2)n1,0.42,5.9%,i
COCCn1c(C)cc(C(=O)COC(=O)CCN2C(=O)c3ccccc3C2=O)c1C,-1.4,1.9%,i
Cc1cccc(-n2cnc(C(=O)N/N=C/c3ccccc3)c2)n1,.,7.3%,i
CCC(Sc1ncnc2c1nnn2-c1ccc(F)cc1)C(=O)OC (stereo unspecified),0.09,3.1%,i
CCC(CC)c1nnc(NC(=O)CS(=O)(=O)Cc2ccccc2)s1,.,0.3%,i
Cc1cc(OC(C)C)c2c(-c3ccccc3)cc(=O)oc2c1,.,0.7%,i
Fc1ccc(Cn2nnnc2CN2CCc3ccccc3C2)cc1,0.52,5.3%,i
COc1cc(C)c(N)cc1C(C)C,0.05,4.5%,i
Cc1cccc(OCc2nnc(SCC(=O)Nc3sc(C)c(C)c3C#N)n2C)c1,0.96,38%,i
COc1ccc(CN(C(=O)c2oc3ccccc3c2C)C2CCS(=O)(=O)C2)cc1 (stereo unspecified),-0.78,3.6%,i
COc1cc(S(=O)(=O)NC2CCCC2)ccc1Cl,0.55,-0.1%,i
Cc1ccnc(NC(=O)CCc2c(C)nc3ncnn3c2C)c1,-1.1,3.8%,i
COc1cc2c(cc1NC(=O)C(c1ccccc1)c1ccccc1)CCCC2,.,-1.2%,i
CC(=O)Oc1ccc2occ(C(=O)c3cccs3)c2c1,0.03,1.3%,i
CC1(C)OC(=O)C(=CNn2cnc3ccccc3c2=O)C(=O)O1,0.83,-6.4%,i
CC(=O)Oc1ccc(CCC(C)OC(C)=O)cc1 (stereo unspecified),-0.38,2.7%,i
CC1(C)Oc2ccc3ccc(=O)oc3c2/C(=C/NC2CCCCC2)C1=O,.,3.1%,i
O=C(NCc1ccccc1)C12CC3CC(CC(C3)C1)C2,.,-3.2%,i
COc1ccc(Cl)cc1N(C)C(=O)CCNC(=O)Cn1cnc2ccccc2c1=O,-1,2.6%,i
CC(=O)N(c1ccc2oc(=O)sc2c1)S(=O)(=O)c1cccs1,1.8,-3.1%,i
CCN(CC)C(=O)c1ccc(O)c(OC)c1,-0.63,-4.8%,i
COc1ccc(CC(=O)OCc2cc3ccccc3[nH]c2=O)cc1,0.26,-2.0%,i
CC1=CC(C)(C)N=C(NC#N)N1,0.09,-2.1%,i
COc1cc(OC)cc(C(=O)Nc2nc3ccccc3[nH]2)c1,.,-1.4%,i
CCCc1nc(SCC(=O)N2CCC(Cc3ccccc3)CC2)c2c(=O)n(C)c(=O)n(C)c2n1,-0.23,-2.2%,i
c1ccc(-c2noc(COc3ccc4c(c3)OCO4)n2)cc1,-0.42,1.2%,i
CCCN1C2=C(C(=O)CCC2)C(c2ccc(O)c(Br)c2)C2=C1CCCC2=O,-0.08,12%,i
CCOC(=O)c1[nH]c(C)c(C(=O)NC)c1C,-0.23,2.0%,i
CCCOc1ccc(CSC(CC(=O)O)C(=O)O)cc1 (stereo unspecified),-0.64,0.5%,i
COc1ccccc1N=c1oc2c(OC)cccc2cc1C(=O)NCc1ccco1,-0.81,-9.5%,i
Cc1ccc(-c2nc(CS(=O)CC(=O)NCCN(CC(C)C)CC(C)C)c(C)o2)cc1 (stereo unspecified),-1.5,-5.2%,i
Cc1cc(C)n(-c2nc(N(c3ccccc3)c3ccccc3)nc(-n3nc(C)cc3C)n2)n1,.,0.8%,i
O=C(CSc1nc2sc3c(c2c(=O)n1Cc1ccco1)CCC3)N1CCc2ccccc21,-0.24,1.1%,i
Cn1c(Cn2c(=O)sc3ccccc32)nnc1SCc1ccc(F)cc1,1.9,4.7%,i

Continuation.
SMILES,WNV NS2B-NS3 inh,Hsc70 ATP site,MT1-MMP promoter
COc1ccccc1C1c2c(oc3ccc(Cl)cc3c2=O)C(=O)N1c1cc(C)on1 (stereo unspecified),0.37,-1.9%,i
Cc1c(N=C2C(=O)Nc3ccccc32)c(=O)n(-c2ccccc2)n1C,0.6,3.8%,i
CC(C)(O)P(C)(=O)c1ccccc1 (stereo unspecified),0.74,0.4%,i
CCOC(=O)c1cnn(-c2nc(C)nc3sc4c(c23)CCC4)c1N,0.45,2.3%,i
COc1ccc(NC(=O)CSc2nnc(C3CCCCC3)o2)c(OC)c1,.,-1.1%,i
